fixLJ activator – increases Burkholderia fixLJ two-component signaling | AID 1918990 | B. multivorans fixK-promoter GFP reporter, 18 h; stronger effect = higher value | 29,000 compounds, 0.3% hits | z-score (test concentration not listed);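 active = replicate mean overnight rise in green fluorescent reporter signal, 3 or more SD over negative controls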;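 note: score is relative to vehicle wells of the plate; 300 nL library stock went into each well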
Numbers without * were called inactive. Only part of the results is shown. The share of hits here may be higher or lower than overall.

SMILES	fixLJ activator
CCOCCCNC(=O)c1c(NC(=O)c2cc(=O)c3ccccc3o2)sc2c1CCC2	-2.8
O=C1Nc2c(c(=O)[nH]c(=O)n2-c2ccc(Cl)cc2)C1(NS(=O)(=O)c1ccccc1)C(F)(F)F (stereo not drawn)	-2.4
CC(C)CC(NC(=O)N1CCC(O)(c2ccccc2)CC1)c1ncnn1C (stereo not drawn)	0.29
CC1CN(C(C)c2nc(CC(N)=O)nn2CC(F)(F)F)CC(C)O1 (stereo not drawn)	-0.17
CC(C)CN(Cc1ccco1)C(=O)NCc1cncn1C1CC1	-3.9
CN(C)CCc1c[nH]c2ccc(C[C@H]3COC(=O)N3)cc12	0.25
CN(C)CCCN1c2ccccc2Sc2ccc(C(F)(F)F)cc21	-0.22
CC1=Nc2cc(C(=O)NCCc3ccc(Cl)cc3)ccc2Sc2ccc(C)cc21	-0.52
COc1ccc(OC)c(S(=O)(=O)Nc2ccc3[nH]c(=O)[nH]c3c2)c1	-0.07
Oc1ccc2c3c1O[C@H]1c4[nH]c5ccccc5c4C[C@@]4(O)[C@@H](C2)N(CC2CC2)CC[C@]314	-1.3
COc1ccc(NC(C)(C)C(=O)N2CCC3(CC2)OCCc2cccc(OC)c23)cc1	-1.1
COc1cc(OC)cc(C(=O)N2CCC(c3cccc(OC)c3)C(O)C2)c1 (stereo not drawn)	0.01
Cc1ccc(NC(=O)CC2Sc3ccccc3NC2=O)c(C)c1 (stereo not drawn)	0.77
CCN(CC)CCOC(=O)c1ccc(NC(=O)c2cc3cc(OC)ccc3oc2=O)cc1	-2.8
Nc1nc2ccc(OC(F)(F)F)cc2s1	-0.83

In a second layout: five of the compounds above.
mol,fixLJ activator
COc1ccc(OC)c(S(=O)(=O)Nc2ccc3[nH]c(=O)[nH]c3c2)c1,-0.07
Oc1ccc2c3c1O[C@H]1c4[nH]c5ccccc5c4C[C@@]4(O)[C@@H](C2)N(CC2CC2)CC[C@]314,-1.3
COc1ccc(NC(C)(C)C(=O)N2CCC3(CC2)OCCc2cccc(OC)c23)cc1,-1.1
COc1cc(OC)cc(C(=O)N2CCC(c3cccc(OC)c3)C(O)C2)c1 (stereo not drawn),0.01
Cc1ccc(NC(=O)CC2Sc3ccccc3NC2=O)c(C)c1 (stereo not drawn),0.77

Remaining list, next part
SMILES	fixLJ activator
NCC1CCC(C(=O)O)CC1 (stereo not drawn)	1.8
Cc1cnn(CC(=O)NCC(c2ccccn2)N2CCOCC2)c1 (stereo not drawn)	-1.2
O=C(c1ccc2c(c1)N(Cc1c(F)cccc1Cl)C(=O)c1ccccc1S2)N1CCC2(CC1)OCCO2	-1.4
COc1ccccc1NC(=O)C1=C(C)Nc2nc3ccccc3n2C1c1ccccc1Cl (stereo not drawn)	0.07
CCCNC(=O)CCn1nc(-c2ccccc2)c2ccccc2c1=O	-2.6
CCOc1ccc(/C=C/c2nc(C#N)c(NCCCN(C)C)o2)cc1	-1.4
CCOc1ccc(C2c3c(-c4ccc(C)cc4)n[nH]c3C(=O)N2c2ccc(Cl)cc2)cc1 (stereo not drawn)	-1.2
CCn1cc2nc(SCC(=O)Nc3cccc(Cl)c3C)n(Cc3ccc(Cl)cc3)c(=O)c2n1	0.04
Cc1cc2c(cc3c(=O)n(CC(=O)NCc4ccccc4Br)ncn32)s1	-0.18
CCOc1cc(CNC(=O)Cn2ncn3c(cc4cc(F)ccc43)c2=O)cc(OCC)c1OCC	-0.34
COC1CCN(S(=O)(=O)c2cccc(C(=O)NCC(F)(F)F)c2)C1 (stereo not drawn)	-4
Cc1ccc(S(=O)(=O)N2CCC(C(=O)Nc3ccc(Oc4ccccc4)cc3)CC2)cc1	-2.5
CCOc1ccc(N(CC(=O)Nc2cc(C)ccc2C)S(=O)(=O)c2c(C)[nH]c(=O)[nH]c2=O)cc1	-1
COc1ccc(-c2cc(=O)oc3c4c(ccc23)OCN(Cc2cccc(OC)c2)C4)cc1	-1.2
CCOc1ccc2nc(SCC(=O)Nc3ccc(F)cc3)nc(-c3ccccc3)c2c1	1.4
COc1cc(Br)cc2cc(S(=O)(=O)c3ccccc3)c(=O)oc12	-0.19
O=C(O)C1Cc2nc[nH]c2CN1C(=O)c1csc2c1CCCC2 (stereo not drawn)	-2.2
CCc1nc2nc(C)cc(Nc3ccc(OC)cc3)n2n1	0.01
CCC(C)NC(=O)CSc1nc(-c2ccc(F)cc2)cc(C(F)(F)F)n1 (stereo not drawn)	0.3
Cc1ccc(C)c(N2CCN(c3nc4ccccc4c(=O)n3-c3ccccc3)CC2)c1	-0.17
COc1cccc(CC(=O)NC(c2cnc3ccccc3c2)C2CC(O)C2)c1 (stereo not drawn)	-1.1
Cc1cc(C)n(C2CN(C(=O)NCCc3nc4ccccc4n3C)C2)n1	0.77
CCN(C(=O)c1coc(CN2CCN(c3ccccc3F)CC2)n1)C(C)C	0.65
CC1CCC(=O)N1c1ccc(NC(=O)CNC(=O)c2ccccc2)cc1 (stereo not drawn)	-3.2
COc1ccc(N2CCN(Cc3nc4c(c(=O)[nH]c(=O)n4C)n3Cc3ccc(Cl)cc3)CC2)cc1	1
Cc1cc(COc2ccccc2)oc1C(=O)NC1(C(=O)O)CCCC1	-0.88
CCN(CCO)C(=O)C1CCC(=O)N(Cc2cccc(OC)c2)C1 (stereo not drawn)	-1.3
Cc1cc(C)c2oc(C(=O)Nc3ccc(S(=O)(=O)Nc4nccc(C)n4)cc3)cc(=O)c2c1	-1.4
CCN(CC)Cc1cnc2c(C(=O)N3CCC(NC(C)=O)C3)cnn2c1 (stereo not drawn)	-2.9
COCc1nc(NC2CCC(O)CC2)cc(C2CC(N)C2)n1 (stereo not drawn)	-2.1
CC1=C(C(=O)N2CCN(c3cccc(C)c3C)CC2)C2(CCCCC2)OC1=O	-0.57
CC(C)CC(=O)C1CCCN(C(=O)c2cccc3c2CCC3=O)C1 (stereo not drawn)	-0.86
CCc1ccc2c(c1)NC(c1ccc(C)cc1)=NC(c1cccs1)=N2	0.66
COc1ccc(CNC(=O)Cn2ncc3c(=O)oc4ccc(C)cc4c32)c(OC)c1	-0.93
O=C1CN(C(=O)c2ccc(S(=O)(=O)N3CCCC3)cc2)C(c2ccccc2)c2cc(F)ccc2N1 (stereo not drawn)	-1.6
COc1ccc(N(CC(=O)NC(C)c2ccccc2)S(=O)(=O)c2c(C)noc2C)cc1 (stereo not drawn)	-0.04
CC1(C(=O)N2CC(O)C(Cc3ccnc4ccccc34)C2)CCCCC1 (stereo not drawn)	-0.38
CCCSc1ncc(Cl)c(C(=O)NCc2ccc(OC)cc2)n1	-0.3
CCn1c(=O)n(-c2ccc(C)c(F)c2)c(=O)c2sc3ccccc3c21	0.68
COc1ccc(NC(=O)CSc2nc(-c3ccccc3)[nH]c2-c2ccccc2)cc1OC	-1.3
CSCCC(NC(=O)N1CCC(c2nc(C(C)C)no2)CC1)C(=O)O (stereo not drawn)	-0.47
CCc1ccc(-n2c(-c3ccccc3)c(C)n3c4c(=O)n(C)c(=O)n(C)c4nc23)cc1	-1.1
Cn1nc2c(c1C(=O)NCCC(=O)NC1CCCCC1)CCCC2	-0.13
O=C(Nc1cc(-c2nc3cc(Cl)ccc3o2)ccc1Cl)c1ccco1	-0.37
Cc1nn(C)c2ncc(C(=O)O)c(N(C)CCN(C)C3CCCC3)c12	-0.88
COc1ccc(NC(=O)C2CCCN(S(=O)(=O)c3cccc4nonc34)C2)cc1Cl (stereo not drawn)	0.4
CC1=C(C(=O)OC2CCCCCC2)C(c2ccc(Cl)cc2Cl)CC(=O)N1 (stereo not drawn)	-0.11
CC(C)NC(=O)CCn1c(SCc2c(F)cccc2Cl)nc2c(sc3ccccc32)c1=O	-0.77
O=C(CN1CC2CCC1CN(C(=O)c1ccccn1)C2)N1CCNCC1 (stereo not drawn)	0.19
CCc1nn(CC(=O)NC(C)C)c(=O)c2cc3cc(F)ccc3n12	-2.4
COc1ccc(NC(=O)CC2C(=O)N(c3cccc(OC)c3)C(=O)N2Cc2ccc3c(c2)OCO3)cc1 (stereo not drawn)	-1.1
Cc1ccc(CNC(=O)c2sc3nc(-c4ccc(F)cc4)ccc3c2N)cc1	0.03
Cc1cc(=O)[nH]c(SCC(=O)N2CCN(c3ccccc3)CC2)n1	-0.39
COc1ccc(OCCn2cc(C(=O)C3CCCCC3)c3ccccc32)cc1	-1.2
CCc1ccccc1N(C)C(=O)Cn1cnc2sc(C)c(S(=O)(=O)N3CCC(C)CC3)c2c1=O	0.01
Cn1cc(C(=O)NCCc2ccccc2)c(=O)c2cc(S(=O)(=O)N3CCCCCC3)ccc21	-2.2
COc1ccc(Cn2c(CCC(=O)Nc3ccc(OC)c(Cl)c3)nc3cccnc32)cc1	1.2
COc1ccc(-c2cc(C(=O)Nc3c(C)nn(Cc4ccc(C)cc4)c3C)no2)cc1OC	-0.83
CC(CNC(=O)c1ccc(CSc2nc3ccncc3n2Cc2ccc(F)cc2)cc1)c1ccccc1 (stereo not drawn)	-3.3
COc1ccc(S(=O)(=O)c2nnn(-c3ccccc3F)c2C)cc1	-2
Continuation.
SMILES	fixLJ activator
CCc1cccc(NC(=O)Cn2c(=O)n(CC3CCC(C(=O)NCCc4ccccc4)CC3)c(=O)c3ccccc32)c1 (stereo not drawn)	-0.03
CC(C)CC(=O)N1CC(=O)Nc2ccc(F)cc2C1c1ccccc1 (stereo not drawn)	2
CCN(CC)CCCNC(=O)CSc1nc2nc(C)c(Cc3c(F)cccc3Cl)c(C)n2n1	2.1
CCCOc1ccc(CN(C(=O)Cc2coc3ccc(CC)cc23)C2CCS(=O)(=O)C2)cc1 (stereo not drawn)	-0.19
CC(C)(C)c1cc(CN2CC3CCC[C@](O)(c4ccccc4)C3C2)[nH]n1 (stereo partly drawn)	-0.69
Cc1oc2c(c1C(=O)N1CCC(CCn3cccn3)CC1)C(=O)CCC2	-0.08
O=C(c1ccco1)c1cn(CCOc2ccc(Cl)cc2)c2ccccc12	0.46
O=C(NCc1ccccc1Cl)c1ccc(Nc2nc3ccccc3n3nnnc23)cc1	-1.5
CCc1cccc(CC)c1-n1nnc2c(sc3nc(C)cc(C)c32)c1=O	-0.33
CCOC(=O)c1c(NC(=O)c2cc(C)on2)sc(C)c1C	-0.39
CC(C)C[C@H](N)c1nnc(SCc2ccc(Cl)cc2Cl)o1	-0.78
CCC1=Nc2cc(C(=O)NC3CCCC3)ccc2Sc2ccc(Cl)cc21	-0.52
COc1ccc(-n2cccn2)cc1S(=O)(=O)N1CCCC(c2nc3ccccc3[nH]2)C1 (stereo not drawn)	-1.6
Cc1ccccc1S(=O)(=O)Cc1ccc(C(=O)NC2CCCCC2)o1	-0.06
Cc1c(C(=O)NC(C)c2nc(N)n[nH]2)cnn1-c1ccccn1 (stereo not drawn)	-2.5

Continued; it opens with the 6 that closed the last part.
SMILES	fixLJ activator
CCOC(=O)c1c(NC(=O)c2cc(C)on2)sc(C)c1C	-0.39
CC(C)C[C@H](N)c1nnc(SCc2ccc(Cl)cc2Cl)o1	-0.78
CCC1=Nc2cc(C(=O)NC3CCCC3)ccc2Sc2ccc(Cl)cc21	-0.52
COc1ccc(-n2cccn2)cc1S(=O)(=O)N1CCCC(c2nc3ccccc3[nH]2)C1 (stereo not drawn)	-1.6
Cc1ccccc1S(=O)(=O)Cc1ccc(C(=O)NC2CCCCC2)o1	-0.06
Cc1c(C(=O)NC(C)c2nc(N)n[nH]2)cnn1-c1ccccn1 (stereo not drawn)	-2.5
Cc1ccc(N2CCN(C(=O)c3cn(C)c4ccc(S(=O)(=O)N(C)C)cc4c3=O)CC2C)cc1 (stereo not drawn)	-1.7
COC(=O)c1ccccc1NC(=O)c1cc(=O)c2ccc(C)c(C)c2o1	-0.88
COP(=O)(OC)OC=C(Cl)Cl	-0.03
CC(=O)Nc1ccc(-c2c(C#N)c(N)nc3c2CN(C(=O)C(C)C)CC3)cc1	-1.7
CCNC(=O)CC1C(=O)NCCN1CCCc1ccccc1 (stereo not drawn)	-1.1
O=C1CN(C(=O)c2ccc(S(=O)(=O)N3CCCC3)cc2)C(c2ccc(F)cc2)c2cc(Br)ccc2N1 (stereo not drawn)	2.1
Cc1cc(C)c2c(n1)SCC(=O)N2CC(=O)Nc1c(C)cccc1C	-0.05
COc1cccc(-c2cc(CNC(=O)c3cnoc3C)on2)c1	1.2
CC1=C(C(=O)Nc2ccccc2C)C(c2ccncc2)n2nc(SCc3ccccc3)nc2N1 (stereo not drawn)	-1.1
CCc1nc(N2CCC(n3c(=O)[nH]c4ccccc43)CC2)c2cnn(C)c2n1	-0.83
Cc1cc(N2CCCCC2)nc2ccc(NC(=O)c3ccc(F)cc3)cc12	0.08
CN(Cc1ccco1)C(=O)CNS(=O)(=O)c1cccs1	-0.55
COc1cccc(-c2[nH]ncc2C(=O)NCc2csc3c2CCCC3)c1	-0.95
CCOc1ccc(NC(=O)c2cc3c(C)nn(-c4ccccc4)c3s2)cc1	-0.71
CC(=O)NCCCC(=O)Nc1c(C)c(C)cc2[nH]c(=O)[nH]c12	-3.2
O=C(NCc1cccc(C(F)(F)F)c1)N1CCN(CCO)CC1	-0.13
COc1ccccc1CNC(=O)CCc1c(C)c2ccc(OC)c(C)c2oc1=O	-1.9
Cc1ccc(NC(=O)C2CCCN(S(=O)(=O)c3ccc(F)cc3)C2)cc1 (stereo not drawn)	-2.1
Cc1n[nH]c(C)c1CCN(C)Cc1cc(C2CCCCC2)no1	0.92
COc1ccccc1NC(=O)Cn1c(=O)oc2cc(S(=O)(=O)NCc3ccccc3)ccc21	-0.08
COCc1cc(C)nc2c1C(=O)NC(c1ccc(Br)cc1)N2Cc1ccccc1 (stereo not drawn)	-2.3
O=C(NCC1CCN(Cc2cscn2)CC1)c1ccon1	0.42
CCCOc1cccc(C(=O)N(Cc2cc(OC)c(OC)c(OC)c2)C2CCS(=O)(=O)C2)c1 (stereo not drawn)	-1.3

Screening data deposited in PubChem BioAssay by ICCB-Longwood Screening Facility, Harvard Medical School.
